# Source: PubChem BioAssay
# Sa ugtP lethal: growth inhibition of S. aureus ugtP deletion strain; AID 1259309; S. aureus RN4220 ugtP deletion, OD600 growth, 16 h; some inactives read as strong as hits; 330,000 tested, 0.54% active; growth inhibition, % (no concentration beside the values);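 active means z-score under -3 and OD600 up to 0.15 on both plates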;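 further: plate controls were untreated wells for no effect and antibiotic for full effect; wells of about 80 µL received 100 nL stock; the first replicate is given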
# Mtb hypoxia rep: Mtb hypoxia fluorescent reporter inhibition; 300,000 tested, 0.1% active; M. tuberculosis hypoxia-regulated fluorescent reporter, fluorescence; fluorescence inhibition, % (concentration not given with the values);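 active means 35 to 45% if threefold the growth effect, above 45% if 1.5-fold the growth effect; inactive means the rest, general growth blockers included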;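 further: wells of about 50 µL received 100 nL stock; 0% = vehicle wells and 100% = reference inhibitor wells; whole bacteria with a GFP reporter of the hypoxia response; strong numbers were not always called active; many hits fall short of the cut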
# BJeLR lethal: kills HRASV12-expressing BJeLR cells. BJeLR (HRASV12) viability, CellTiter-Glo ATP luminescence, 48 h; reference of the scale not given here. inhibition, % (test concentration not listed). 300,000 tested, 0.17% active;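 active means replicate mean above 50%; inconclusive means above 50% but judged a plate artefact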;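 further: 50 nL library stock added to about 25 µL; numbers are from one replicate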
# Autofluor counter: flagged as autofluorescent in microsphere protease counterscreen; fluorescence intensity (no concentration beside the values); 360,000 tested, 3.1% active; compound autofluorescence counterscreen, microsphere flow cytometry; active compounds read high;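 active means at least 3 SD above the mean of all compounds, about 16000 in these data; inconclusive means too few beads counted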;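 further: 100 nL of 1 mM stock went into each well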
# Sa RN4220 lethal: S. aureus RN4220 growth inhibition. OD600, 16 h. inhibition, % (no concentration beside the values). 330,000 tested, 0.33% active. AID 1259311;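 active means z-score of -3 or lower and OD600 up to 0.18 on both plates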;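 further: plate controls were untreated cells for no effect and reference antibiotic for full effect; stock transfer was 100 nL into about 80 µL; one replicate is shown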
# PrP 5UTR inh: suppresses PrP 5' UTR mRNA reporter expression; cell-based PrP 5' UTR mRNA reporter, plate reader; inhibition, % (no concentration beside the values); AID 488862; 340,000 tested, 0.35% active;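 active means every replicate at 50% or more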;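 further: 0 = median of the neutral control wells; tested in H4 reporter cells; numbers are from one replicate; inactives centre near -14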
# Mtb hypoxia rep growth: further read-out of Mtb hypoxia rep, marked with its call; growth inhibition, %; measured here: M. tuberculosis growth (absorbance);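 0% = vehicle and 100% = reference antibiotic; read after six days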
# Active calls of the source: *; ? = inconclusive; · = not tested or not shown.
SMILES,Sa ugtP lethal,Mtb hypoxia rep,Mtb hypoxia rep growth,BJeLR lethal,Autofluor counter,Sa RN4220 lethal,PrP 5UTR inh
Cc1ccc(-c2c(C(=O)NN=Cc3c[nH]c4ccccc34)nnn2-c2nonc2N)cc1,1,-3,4,·,·,27,·
Cc1ccc(C(=O)/C=C2\NCCNC2=O)cc1,1,0,4,-2,4691,-0.2,-78
COc1ccc(NC(=O)c2nnn(Cc3ccc(SC)cc3)c2N)c(OC)c1,-3,·,·,-18,5341,-4.2,-29
CCOC(=O)c1cc2cc(OC)ccc2nc1C,-1,·,·,-8,2840,10,-25
NC(=S)NN=C1Cc2cccc3cccc1c23,2,·,·,·,3797,3.1,-4
COc1ccc(NC(=O)C2CCCN(S(=O)(=O)c3c(C)[nH]c(=O)[nH]c3=O)C2)cc1OC (stereo not drawn),10,9,-11,-2,3406,3.2,-26
CCOC(=O)C(C(C)=NNC(=O)c1ccccc1[N+](=O)[O-])C(C)C (stereo not drawn),-5,2,11,·,·,1.7,·
O=c1[nH]c(=S)[nH]c(O)c1N=Nc1cc2c(cc1[N+](=O)[O-])OCO2,17,11,-3,-8,3983,0.5,-24
CCN1CCN(Cc2ccc(NC(=O)CC3Oc4ccc(C)cc4NC3=O)cc2)CC1 (stereo not drawn),4,·,·,-3,6040,1.3,-17
Cc1ccc(-c2csc(NC(=O)CN3CCOCC3)n2)cc1,9,-8,6,1,5797,-0.4,-17
CC(C)NC(=O)CCn1nc(-c2ccc(Cl)cc2)c2ccccc2c1=O,1,5,12,1,3364,3.3,-3
Cn1c(CO)cnc1SCC(=O)c1ccc(Cl)cc1,10,14,5,8,4602,3.9,-1
Cc1nn(Cc2ccc(Cl)c(Cl)c2)c(C)c1NC(=O)c1sc2ccccc2c1Cl,-20,11,7,1,3809,-6.0,-12
O=C(Nc1cccc(Cl)c1)Nc1cccc(Cl)c1,-18,-11,-6,4,3494,1.9,-27
O=C(Nc1ccc2nc3n(c(=O)c2c1)CCCC3)c1cc([N+](=O)[O-])ccc1F,5,-1,3,-1,8809,-1.7,-13
O=C(O)C=C1CCN(c2ncc(C(F)(F)F)cc2Cl)CC1,6,14,7,1,6834,3.6,-19
CN(C)c1ccc(N=Nc2ccc(S(=O)(=O)O)cc2)c2ccccc12,-1,·,·,7,1957,1.7,-32
C=CCc1c(C)nc(-c2ccccc2)nc1N/N=C(\C)c1ccc(N)cc1,·,·,·,1,7586,·,-24
COc1cc(Nc2cccc[n+]2C)cc(OC)c1OC,0,11,0,-5,4846,0.8,-13
O=c1c2c(nc3cc(-c4ccc(F)cc4)[nH]n13)CCC2,·,·,·,15,2201,·,-85
Cc1ccccc1OCCC(=O)OCC(=O)N1c2ccccc2NC(=O)C1(C)C,·,·,·,-3,5994,·,-20
CN(CC(=O)NCCc1ccccc1)S(=O)(=O)c1cnc[nH]1,10,8,2,8,2268,5.7,-7
COc1ccc(OC)c(N(CC(=O)Nc2cccc3ccccc23)S(C)(=O)=O)c1,-5,-7,8,10,3596,-1.7,2
O=C(Nc1ccc(Oc2cccc(C(F)(F)F)c2)nc1)c1cccs1,28,12,7,0,6525,-12,-30
C=CCOc1c(Cl)cc(C(=S)N2CCCC2)cc1OCC,-3,16,3,3,3445,1.7,-21
CC(C)C(=O)Nc1ccc(NC(=O)c2ccccc2Cl)nc1,4,·,·,-1,3849,-2.4,-37
CCN(CC)CCOC(=O)c1ccc(Cl)cc1,-4,·,·,-2,4366,-1.1,-3
O=C1C2CC=CCC2C(=O)N1CC(=O)N(Cc1ccccc1)C1CCS(=O)(=O)C1 (stereo not drawn),-9,-2,5,6,22395*,5.4,-24
COC(=O)CCCC(=O)Nc1c(F)c(F)c(F)c(F)c1F,-5,-11,6,-7,9325,-0.6,-7
CCOC(=O)Cc1nnc(NC(=O)C(CC)Sc2nnc3c4ccccc4n(C)c3n2)s1 (stereo not drawn),9,17,2,-3,6675,0.6,-9
O=C(CSC(=S)N1CCSCC1)c1ccc(Cl)cc1,16,·,·,1,3517,-0.2,-108
c1cncc(-c2nc3c(ccc4ccccc43)[nH]2)c1,-3,7,1,-6,10496,12,-68
NC(=O)C1CCN(C(=S)c2cccs2)CC1,5,·,·,1,4096,0.3,-16
COc1ccc(CN2CCCC(C(=O)c3ccc(Cl)cc3)C2)cc1Cn1cccn1 (stereo not drawn),5,-5,-3,2,3434,0.9,-2
Cc1csc(NC(C)c2nc3cc(C(F)(F)F)ccc3n2CCCO)n1 (stereo not drawn),0,10,7,-3,4137,-15,-20
O=C(O)Cn1cc(C(=O)c2cccs2)c2ccccc21,8,5,6,5,11687,4.7,·
CCn1ncc(C=NNC(=O)Cc2ccc([N+](=O)[O-])cc2)c1C,5,-4,4,·,·,1.5,·
CCCNC(=O)COc1ncnc2sc(C)c(C)c12,6,·,·,6,2254,6.0,-4
CCOc1ccc(S(=O)(=O)NCCC(=O)NC2=NCCS2)cc1,-4,·,·,·,5002,2.3,-23
O=C(N/N=C\c1ccc(OCC(=O)N2CCCC2)cc1)C(=O)Nc1ccccc1F,·,·,·,-7,6939,·,-10
Cn1c(CO)cnc1SCc1ccccc1,-3,12,4,-10,2637,-14,-38
N#CCCCn1c(O)c(N=NC(=O)C(O)c2ccccc2)c2ccccc21 (stereo not drawn),-2,10,4,0,3735,4.0,-6
O=C(NC1CCCCCC1)c1ccc(-n2cnnc2)cc1,12,16,8,0,6537,-0.9,-9
CC(C)(C)c1cc(C(=O)Nc2cccc3ccccc23)ccn1,-6,-1,3,-12,6897,-6.0,-16
Cc1cccc(CSC(Nc2ccc(F)cc2)=C(C#N)C#N)c1,97*,5,8,19,2102,100*,-16
O=c1[nH]c(-c2ccccn2)nc(C(F)(F)F)c1Br,7,5,7,0,5012,17,-46
Cc1cc(NC(=O)CSc2nc3c(C)c(C)ccc3cc2C)no1,8,7,1,-9,6463,4.0,-12
COC(=O)C1=CC(C(=O)c2cccs2)=NN(c2ccc(OC)cc2)C1C(=O)OC (stereo not drawn),-8,5,2,0,3812,1.5,-11
NCCCCCc1cn(CC(=O)NCCCCCCCCCCC(=O)N2CCNCC2)nn1,-11,11,9,·,2680,2.5,-6
O=C(NCC1CCCO1)c1ccc(NC(=O)C2C3C=CC(C3)C2C(=O)O)cc1 (stereo not drawn),6,10,10,-3,?,2.9,-34
C=C(C)CN=C1NN=C(c2cc(C)n(-c3ccc(C)cc3)c2C)CS1,6,3,0,5,2220,3.7,-43
CCCOc1ccc(C(=O)O)cc1,1,1,-7,5,4034,-0.1,-16
CCc1ccc(OCC(=O)N(Cc2cccs2)C2CCS(=O)(=O)C2)cc1 (stereo not drawn),-1,-3,1,7,6336,7.1,6
O=C(Cn1cnc2c(cnn2-c2ccccc2)c1=O)N1CCCc2ccccc21,4,5,14,1,4435,1.2,-15
C[C@H]1CN(S(=O)(=O)C(C)(C)C)[C@H](CCO)/C1=C\c1ccccc1,6,0,4,·,2932,7.6,-11
O=C(CNC(=O)c1ccc(Cl)cc1)c1ccc(Cl)cc1,17,4,5,1,4018,8.9,·
O=C(COC(=O)c1ccccc1-c1nc2ccccc2s1)NC1CCS(=O)(=O)C1 (stereo not drawn),9,2,1,11,2482,4.5,-21
Cc1ccc(NC(=S)NC(=O)Cc2ccccc2)c(O)c1,11,0,-1,3,4090,4.3,-27
CCOc1cc(/C=N/NC(=O)Cc2ccc(C(F)(F)F)cc2[N+](=O)[O-])c(Br)cc1OC,·,·,·,-2,10282,·,13
COC(=O)CSc1nc2sccc2c(=O)n1-c1ccccc1,-3,6,2,-4,6523,15,-45

# Further compounds
SMILES,Sa ugtP lethal,Mtb hypoxia rep,Mtb hypoxia rep growth,BJeLR lethal,Autofluor counter,Sa RN4220 lethal,PrP 5UTR inh
COC(=O)[C@@]1(Cc2ccc(F)cc2)C2c3cc(C(=O)N(C)C)n(CCc4ccc(OC)c(Br)c4)c3CC2CN1C(=O)c1ccccc1 (stereo partly drawn),-39,6,10,·,·,1.5,·
CCOc1cc(N2CCOCC2)c(OCC)cc1NC(=O)COC(=O)COc1ccc(C#N)cc1,1,4,17,-7,6140,-1.3,-14
O=CN(CCN(C=O)CN1CCCCC1)CN1CCCCC1,-3,-3,2,-5,2473,-1.3,-14
Cc1cc(=O)n2[nH]cc(-c3ccccc3)c2n1,-4,-4,2,7,3961,-2.5,-2
CCCN(CCC)CCCNC(=S)Nc1ccc2nc3n(c(=O)c2c1)CCCCC3,-6,1,-1,-11,6585,3.3,-2
COc1ccc(NCc2n[nH]nc2-c2ccccc2)cc1Cl,-7,·,·,-8,4629,6.8,-7
Cc1cccn2c(=O)c3cc(C(=O)NC4CCCCC4)sc3nc12,-2,-13,-4,-5,4072,-0.6,-13
O=c1cc(-c2ccccc2)ss1,3,24,9,·,2986,5.8,0
Cc1ccc(NC(=O)N2CCCC2C(=O)NCc2ccc3c(c2)OCO3)cc1 (stereo not drawn),0,5,3,-4,5453,-0.4,-10
O=[N+]([O-])c1ccc(Oc2cccc(Br)c2)c2ccncc12,21,·,·,-2,2640,-0.2,-21
CNS(=O)(=O)c1cccc(C(=O)OCC(=O)c2ccc3[nH]c(=O)[nH]c3c2)c1,8,2,5,·,2944,2.6,-27
Nc1nc(NCCOCCO)nc(NCc2ccccc2)c1[N+](=O)[O-],14,2,-2,-5,3474,2.2,-19
CC(C)COc1ccc(Br)cc1CNC(C)(C)C,6,13,4,-6,4649,2.5,-24
CCN1CC2C3C(=O)N(Cc4ccccc4)C(=O)C3[C@](Cc3ccccc3)(C1=O)N2C(=O)c1ccc(C(C)(C)C)cc1 (stereo partly drawn),5,6,10,·,·,3.4,·
COc1cc(C2c3c(oc4ccccc4c3=O)C(=O)N2Cc2ccncc2)ccc1O (stereo not drawn),-10,1,3,-7,9401,6.8,-7
CCOC(=O)N1CCN(C(=O)c2ccccc2NS(=O)(=O)c2ccc(C)cc2)CC1,7,12,14,-4,4669,4.0,-11
Cc1cc(C(=O)COc2cccc(-n3cnnn3)c2)c(C)n1-c1ccccc1,-7,7,7,-4,16603*,6.2,-28
CC(=O)Nc1ccc(NC(=O)CSc2nc(=O)n(Cc3ccncc3)c3c2CCC3)cc1,10,3,7,7,?,2.4,-22
CN(Cc1ccccc1)C(=O)COC(=O)CN1C(=O)c2ccccc2C1=O,7,8,1,·,4110,5.1,-18
CC12CC3CC(C)(C1)CC(CN1CCOCC1)(C3)C2,6,·,·,2,2330,13,-18
O=C(OCC(=O)N1CCc2ccccc21)c1ccc(Cl)nc1,3,13,11,0,23913*,1.9,-23
O=C(NN=Cc1cccnc1)c1ccccc1Cl,5,13,0,·,·,2.5,·
CCCOC(=O)CSc1nnc(-c2ccc(Cl)cc2Cl)o1,1,·,·,2,2464,-3.3,-2
CCN1CCCC1CNC(=O)c1cc2c(OC)cccc2[nH]1 (stereo not drawn),6,6,8,-6,8280,3.1,-13
CCN(CC)CCN(C(=O)c1ccc(Br)s1)c1nc2cc3c(cc2s1)OCCO3,1,7,4,-5,4281,-0.4,-1
Cc1ccc(C)c(N=Nc2nc3ccccc3n2C)c1,-19,-3,12,2,8038,8.3,-38
COc1ccc(-n2c(/C=C/c3ccc(O)c(O)c3)nc3ccccc3c2=O)cc1,-4,0,7,-6,5128,12,-11

# Not a hit list; 4% or so of the library scored in one or more.
